High-throughput results (PubChem)
MLL AF4-AF9 inh: MLL-AF4/AF9 protein interaction inhibition | 350,000 compounds, 0.47% hits | inhibition, % at 10 µM | AlphaScreen, biotin-AF4 peptide binding to FLAG-AF9 | P42568;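 active means every replicate reaching a set inhibition limit, whatever the replicate mean, cut at about 25% in these data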;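 further: 0% = plate neutral control median and 100% = total signal loss; the record names both 10 and 1 µM as test concentration; the first replicate is given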
Target sequence (P42568 whole entry, looked up): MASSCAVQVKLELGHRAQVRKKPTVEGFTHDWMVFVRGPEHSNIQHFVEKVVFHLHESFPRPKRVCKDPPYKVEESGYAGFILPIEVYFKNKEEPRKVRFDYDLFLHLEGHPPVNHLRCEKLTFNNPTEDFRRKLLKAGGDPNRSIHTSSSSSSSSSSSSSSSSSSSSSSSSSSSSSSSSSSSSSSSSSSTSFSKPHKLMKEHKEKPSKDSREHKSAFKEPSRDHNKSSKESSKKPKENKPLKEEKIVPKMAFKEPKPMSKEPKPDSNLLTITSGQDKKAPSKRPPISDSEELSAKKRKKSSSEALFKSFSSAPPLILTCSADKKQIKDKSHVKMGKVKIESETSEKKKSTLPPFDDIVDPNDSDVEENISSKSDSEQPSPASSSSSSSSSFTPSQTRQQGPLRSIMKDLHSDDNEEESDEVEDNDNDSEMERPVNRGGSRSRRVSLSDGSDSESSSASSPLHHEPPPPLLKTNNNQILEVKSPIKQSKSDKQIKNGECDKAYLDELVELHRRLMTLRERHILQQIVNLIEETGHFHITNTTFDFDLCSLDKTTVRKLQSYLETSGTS
Starred values were filed as active, the others as inactive.

MLL AF4-AF9 inh | Molecule
-1.0 | COc1ccc(NC(=O)N(C)C[C@@H]2Oc3c(NC(=O)c4nc5ccccc5s4)cccc3C(=O)N([C@H](C)CO)C[C@H]2C)cc1
-0.7 | O=C(O)C[C@@H]1C[C@H]2c3cc(NC(=O)c4ccc5c(c4)OCO5)ccc3O[C@H]2[C@H](CO)O1
-2.6 | O=C(C[C@@H]1C[C@H]2c3cc(NC(=O)C4CCOCC4)ccc3O[C@H]2[C@H](CO)O1)NCC1CC1
0.8 | CCOC(=O)C1(C)CCCN(C(=O)c2c(-c3ccccc3)noc2C)C1 (centres undefined)
4.9 | C[C@@H]1CN([C@H](C)CO)C(=O)c2cccc(NC(=O)Nc3ccc4c(c3)OCO4)c2O[C@H]1CN(C)C(=O)Nc1ccc2c(c1)OCO2
-1.7 | C/C=C/c1ccc2c(c1)O[C@H](CN(C)CC1CCOCC1)[C@@H](C)CN([C@@H](C)CO)S2(=O)=O
-6.4 | CCCNC(=O)c1cc(C2CCCCN2S(=O)(=O)c2ccc(OC)cc2)on1 (centres undefined)
-12 | CN1C(=O)c2cc(NC(=O)c3ccccc3Cl)ccc2OC[C@H]2O[C@H](CC(=O)NCC(F)(F)F)CC[C@@H]21
4.5 | COc1cccc(CNC(=O)[C@H]2[C@H](CO)[C@H]3Cn4c(cccc4=O)[C@@H]2N3C(=O)C2CCCC2)c1
-2.2 | C[C@H]1CN([C@@H](C)CO)C(=O)c2cccc(NS(=O)(=O)c3ccc(Cl)cc3)c2O[C@@H]1CN(C)C(=O)Nc1ccc2c(c1)OCO2
5.1 | CN(C)Cc1cn(CC[C@H]2CC[C@H](NS(=O)(=O)c3ccc(-c4ccccc4)cc3)[C@@H](CO)O2)nn1
-5.2 | COc1ccc2c3c(n(C)c2c1)[C@H](CO)N(Cc1ccc(Cl)cc1)CC31CCN(C(=O)NC(C)C)CC1
3.4 | C[C@H](CO)N1C[C@H](C)[C@H](CN(C)C(=O)Nc2ccc(C(F)(F)F)cc2)Oc2ccc(NC(=O)Cc3ccccc3)cc2C1=O
0.1 | Cc1cc2nc(-c3cccc(Br)c3)c(CC(C)(C)C)n2c(C)c1Br
7.5 | COc1ccc(-n2nnnc2C(c2cccc3ccccc23)N2CCN(C/C=C/c3ccccc3)CC2)cc1 (centres undefined)

The list continues.
MLL AF4-AF9 inh | Molecule
0.5 | COc1ccc(NC(=O)Nc2cccc3c2O[C@@H](CN(C)C(=O)Nc2ccc(F)cc2)[C@H](C)CN([C@@H](C)CO)C3=O)cc1
-0.8 | O=C(COc1ccccc1)N[C@@H]1c2ccccc2CC[C@@H]1O
-6.5 | Cc1ccc(S(=O)(=O)Nc2cccc3c2O[C@H](CN(C)C(=O)Nc2c(C)noc2C)[C@@H](C)CN([C@H](C)CO)C3=O)cc1
0.0 | COc1ccc(Cc2c(-c3ccc(F)cc3)nc3ccc(C)cn23)c(C)c1
-0.5 | N#C[C@H]1[C@@H](c2ccc(C3=CCCCC3)cc2)[C@@H](CO)N1C(=O)Nc1ccccc1F
1.8 | COc1cccc(-c2ccc3c(c2)O[C@H](CN(C)C)[C@@H](C)CN([C@H](C)CO)S3(=O)=O)c1
0.1 | C[C@H]1CN([C@@H](C)CO)C(=O)c2cc(NC(=O)Cc3cn(C)c4ccccc34)ccc2O[C@H]1CN(C)C(=O)Nc1ccc(C(F)(F)F)cc1
-0.6 | C/C=C/c1ccc([C@H]2[C@@H](CO)N(C(=O)c3ccccc3)C23CN(C(C)=O)C3)cc1
0.4 | C[C@H]1CN([C@@H](C)CO)C(=O)c2cc(NC(=O)NC3CCCCC3)ccc2O[C@@H]1CN(C)S(=O)(=O)c1cn(C)cn1
0.3 | CC(C)NC(=O)N(C)C[C@@H]1Oc2ccc(NS(=O)(=O)c3ccc(F)cc3)cc2C(=O)N([C@@H](C)CO)C[C@H]1C
3.5 | CO[C@H]1CN(C)C(=O)c2cc(NS(=O)(=O)c3cccc(F)c3)ccc2OC[C@H](C)N(Cc2cc(F)ccc2F)C[C@@H]1C
-1.4 | CCCN(C)C1CN(Cc2cn(Cc3ccc(F)cc3)nn2)S(=O)(=O)C1 (centres undefined)
4.5 | C[C@@H]1CN([C@@H](C)CO)C(=O)c2cc(/C=C/c3ccccc3)cnc2O[C@@H]1CN(C)S(=O)(=O)c1ccccc1
-1.8 | CCCNC(=O)Nc1ccc2c(c1)OC[C@H](C)N(C)C[C@@H](C)[C@@H](OC)CN(C)C2=O
-18 | O=C(C1CCCCC1)N1CC[C@@H]2[C@H](CO)Nc3ccc(C#Cc4ccc(F)cc4)cc3[C@@H]21

More entries:
MLL AF4-AF9 inh | Molecule
-2.3 | C/C=C/c1ccc([C@H]2[C@@H](CO)N(C(=O)c3cnccn3)C23CN(C(C)=O)C3)cc1
12 | CO[C@@H]1CN(C)C(=O)c2ccc(NC(=O)c3ccc(Oc4ccccc4)cc3)cc2OC[C@@H](C)NC[C@H]1C
-3.4 | COc1ccc(S(=O)(=O)Nc2ccc3c(c2)[C@@H]2C[C@@H](CC(=O)N(C)C)O[C@@H](CO)[C@@H]2O3)cc1
-1.0 | CCCCCCCCN1C(=O)[C@H](CC(=O)NCc2cccc(C(F)(F)F)c2)C[C@@]2(C(=O)OC)CC(C)(C)CC=C12
2.2 | C[C@H]1CN([C@@H](C)CO)C(=O)Cc2cc(NC(=O)Cc3cn(C)c4ccccc34)ccc2O[C@H]1CN(C)C(=O)NC1CCCCC1
1.9 | O=C(C[C@@H]1CC[C@@H](NC(=O)Nc2ccc3c(c2)OCO3)[C@@H](CO)O1)NCCCN1CCOCC1
2.4 | O=C(C[C@@H]1CC[C@H]2[C@@H](COC[C@@H](O)CN2Cc2cc(F)ccc2F)O1)N[C@H]1CCN(Cc2ccccc2)C1
0.4 | CO[C@H]1CC[C@@H]2CCN(C)C(=O)C[C@@H](c3ccccc3)CN(C)C(=O)c3cc(C#N)ccc3OC[C@@H]1O2
-4.5 | CC(C)N1CCC(C)(C(=O)Nc2ccc(Cl)c(Cl)c2)C1 (centres undefined)
-5.4 | O=C(C(=O)N1CCN(C/C=C/c2ccccc2)CC1)c1ccccc1
-0.9 | CN(C)C(=O)C[C@@H]1CC[C@H](NC(=O)C2CCC2)[C@H](CO)O1
-0.4 | O=C(C[C@@H]1CC[C@@H](NC(=O)Nc2ccc3c(c2)OCO3)[C@@H](CO)O1)NCc1ccccc1
-2.4 | CC(C)CN(C(=O)Cn1nnc(-c2ccc(Cl)cc2)n1)C1CCS(=O)(=O)C1 (centres undefined)
-1.4 | CC(C)CNc1ncnc2c1ncn2[C@H]1CN(CCN2CCOCC2)C[C@@H](CO)O1
-2.4 | CCC(=O)N(C)C[C@H]1Oc2cc(C#C[C@@H](C)O)ccc2S(=O)(=O)N([C@@H](C)CO)C[C@H]1C

(further entries)
MLL AF4-AF9 inh | Molecule
-2.1 | C[C@@H]1CN([C@@H](C)CO)C(=O)c2cc(NC(=O)c3ccccc3)ccc2O[C@@H](C)CCCCO[C@@H]1CN(C)C(=O)c1ccccc1
-0.4 | CN(C)C(=O)c1cccc(-c2ccccc2[C@H]2[C@H](C#N)N(C(=O)C3CCCC3)[C@H]2CO)c1
-0.7 | O=C(C[C@@H]1C=C[C@H](NS(=O)(=O)c2ccc(F)cc2)[C@@H](CO)O1)NCc1ccncn1
6.6 | COc1ccc(S(=O)(=O)N(C)C[C@H]2Oc3ncc(/C=C/c4ccccc4)cc3C(=O)N([C@H](C)CO)C[C@H]2C)cc1
-3.4 | COC(=O)C(C)(C)c1cccnc1C#N
-0.8 | C[C@@H]1CCCCO[C@H](CN(C)S(=O)(=O)c2ccc(Cl)cc2)[C@@H](C)CN([C@@H](C)CO)C(=O)c2cc(NS(=O)(=O)c3cccs3)ccc2O1
0.4 | O=S(=O)(N[C@H]1CC[C@H](CCn2cc(-c3cccnc3)nn2)O[C@@H]1CO)c1ccc(F)cc1
-0.7 | CCCNC(=O)Nc1ccc2c(c1)OC[C@@H](C)N(CCC(F)(F)F)C[C@H](C)[C@H](OC)CN(C)C2=O
3.0 | CC(C)C[C@H]1CNC(=S)N1C[C@H]1CCCN1C[C@H](Cc1ccccc1)N1C[C@H](Cc2ccc(O)cc2)N(CC2CCCCC2)C1=S
-0.1 | O=C(C[C@@H]1C[C@@H]2c3cc(NC(=O)Nc4ccccc4F)ccc3O[C@@H]2[C@H](CO)O1)NCc1ccccn1
-8.3 | C#CCOCCOCCOCCNc1nc(N2CCN(C(=O)Cn3cc(CC(C)O)nn3)CC2)nc(N2CCN(C(=O)[C@H](C)n3cc(CCC(=O)O)nn3)CC2)n1 (some centres undefined)
3.2 | COc1ccc(NS(=O)(=O)c2cc(NC(=O)C3=NN(c4ccccc4)C(=O)CC3)ccc2C)cc1
1.5 | CO[C@H]1CN(C)C(=O)c2ccc(NC(C)=O)cc2OC[C@@H](C)N(C(=O)C2CCC2)C[C@@H]1C
-2.4 | CNC(=O)C[C@@H]1CC[C@@H]2[C@@H](COc3ccc(NC(=O)c4ccc(F)c(F)c4)cc3C(=O)N2C)O1
-3.6 | C[C@@H]1CN([C@@H](C)CO)C(=O)c2cc(NS(=O)(=O)c3cn(C)cn3)ccc2O[C@@H](C)CCCCO[C@@H]1CN(C)S(=O)(=O)c1ccc(Cl)cc1

(list continues)
MLL AF4-AF9 inh | Molecule
0.4 | CCOC(=O)[C@]12CCCC=C1N(Cc1ccccc1)C(=O)[C@H](CC(=O)NCc1cccs1)C2
0.7 | C[C@@H]1CN([C@H](C)CO)C(=O)Cc2cc(NC(=O)Cc3cn(C)c4ccccc34)ccc2O[C@H]1CN(C)Cc1ccncc1
3.1 | COCC#Cc1ccc([C@@H]2[C@@H](CO)N3CCCCN(S(=O)(=O)c4ccc(OC)cc4)C[C@H]23)cc1
-1.9 | Cc1ccc(S(=O)(=O)N(C)C[C@@H]2Oc3c(NC(=O)C4CCCCC4)cccc3C(=O)N([C@H](C)CO)C[C@H]2C)cc1
-2.6 | CC(C)NC(=O)N(C)C[C@@H]1Oc2ncc(-c3cncnc3)cc2C(=O)N([C@@H](C)CO)C[C@H]1C
-5.6 | C[C@H](CO)N1C[C@H](C)[C@@H](CN(C)C)OCCCC[C@H](C)Oc2ccc(NC(=O)Nc3ccc4c(c3)OCO4)cc2C1=O
-2.7 | C[C@H](O)C#Cc1cnc2c(c1)C(=O)N([C@H](C)CO)C[C@@H](C)[C@@H](CN(C)CC1CCOCC1)O2
1.6 | O=C(c1ccc(F)cc1)N1CC(=O)N2[C@H](CO)[C@H](c3ccc(-c4ccccc4F)cc3)[C@H]2C1
-2.2 | C[C@@H]1CN([C@@H](C)CO)C(=O)c2cc(-c3ccccc3)cnc2O[C@@H]1CN(C)C(=O)c1cccnc1
-2.7 | O=S1(=O)CC(N2CCCCC2)CN1Cc1cn(Cc2cccc(Cl)c2)nn1 (centres undefined)
-2.7 | COc1ccc2c3c(n(C)c2c1)[C@@H](CO)N(C(=O)C1CCOCC1)CC31CN(C(=O)C2CCOCC2)C1
-1.2 | O=C(C[C@@H]1CC[C@@H](NS(=O)(=O)c2ccccc2)[C@H](CO)O1)NCc1ccc(Cl)c(Cl)c1

Molecules above that contain an aryl methoxy group, in the order listed:
MLL AF4-AF9 inh | Molecule
-1.0 | COc1ccc(NC(=O)N(C)C[C@@H]2Oc3c(NC(=O)c4nc5ccccc5s4)cccc3C(=O)N([C@H](C)CO)C[C@H]2C)cc1
-6.4 | CCCNC(=O)c1cc(C2CCCCN2S(=O)(=O)c2ccc(OC)cc2)on1 (centres undefined)
4.5 | COc1cccc(CNC(=O)[C@H]2[C@H](CO)[C@H]3Cn4c(cccc4=O)[C@@H]2N3C(=O)C2CCCC2)c1
-5.2 | COc1ccc2c3c(n(C)c2c1)[C@H](CO)N(Cc1ccc(Cl)cc1)CC31CCN(C(=O)NC(C)C)CC1
7.5 | COc1ccc(-n2nnnc2C(c2cccc3ccccc23)N2CCN(C/C=C/c3ccccc3)CC2)cc1 (centres undefined)
0.5 | COc1ccc(NC(=O)Nc2cccc3c2O[C@@H](CN(C)C(=O)Nc2ccc(F)cc2)[C@H](C)CN([C@@H](C)CO)C3=O)cc1
0.0 | COc1ccc(Cc2c(-c3ccc(F)cc3)nc3ccc(C)cn23)c(C)c1
1.8 | COc1cccc(-c2ccc3c(c2)O[C@H](CN(C)C)[C@@H](C)CN([C@H](C)CO)S3(=O)=O)c1
-3.4 | COc1ccc(S(=O)(=O)Nc2ccc3c(c2)[C@@H]2C[C@@H](CC(=O)N(C)C)O[C@@H](CO)[C@@H]2O3)cc1
6.6 | COc1ccc(S(=O)(=O)N(C)C[C@H]2Oc3ncc(/C=C/c4ccccc4)cc3C(=O)N([C@H](C)CO)C[C@H]2C)cc1
3.2 | COc1ccc(NS(=O)(=O)c2cc(NC(=O)C3=NN(c4ccccc4)C(=O)CC3)ccc2C)cc1
3.1 | COCC#Cc1ccc([C@@H]2[C@@H](CO)N3CCCCN(S(=O)(=O)c4ccc(OC)cc4)C[C@H]23)cc1
-2.7 | COc1ccc2c3c(n(C)c2c1)[C@@H](CO)N(C(=O)C1CCOCC1)CC31CN(C(=O)C2CCOCC2)C1

The list is partial. The share of hits here may be higher or lower than overall.
